# Assay outcomes: PubChem BioAssay, National Center for Advancing Translational Sciences (NCATS)
# VACV mCherry inh = inhibitors of vaccinia virus infection (mCherry reporter signal); Vaccinia virus mCherry reporter infection, fluorescence; about a quarter of the inactives have no number; Potency, µM (series often up to 36.5 µM), for inactives: top-dose activity change, negative = inhibition, hits mostly inhibitors; actives 0.63% (n = 310,000); AID 720579; active = well fitted inhibition curve with a large enough effect; inconclusive = small, poorly fitted or top-dose-only effect; inactive = no such curve, though single readings can be large or run the other way; tested in A549 cells; note: nearly all actives have a fitted effect of over 35% in size; inactives centre near -10
# Vaccinia Venus = vaccinia inhibition (Venus reporter). Potency, µM (titrated, usually from 36.5 µM), for inactives: at the highest dose activity change, negative = inhibition, most hits filed as inhibitors. Vaccinia virus Venus reporter expression, fluorescence. AID 720580. actives 0.46% (n = 330,000); active means well fitted inhibition curve with a large enough effect; inconclusive means small, poorly fitted or top-dose-only effect; inactive means no such curve, though single readings can be large or run the other way; tested in A549 cells; note: nearly all actives have a fitted effect of over 30% in size; inactives centre near -10
# * hit, by the source's call; i = inactive; ? = inconclusive; / = no result given; & = joins results of further samples; [ ] = dose if it differs, or a comment. % is set by controls: 0 for no effect and ±100 for the full control effect; potency is the fitted concentration of half-maximal effect.
# The first 25 entries (preview)
SMILES,VACV mCherry inh,Vaccinia Venus
Cc1ccccc1-c1cc2nc(C)c(Cl)c(=O)n2[nH]1,4%,6%
N#CCc1c(C#N)c(N)nc(Nc2ccccc2)c1C#N,i[7.34 µM],-11%[7.34 µM]
O=C(OCC(=O)N1CCOCC1)c1cc(F)c(F)cc1Cl,-22%,15%
COC(=O)C(Cc1ccc(OC(=O)c2ccccc2Cl)cc1)N1Cc2ccccc2C1=O (configuration not stated),/,?
Nc1ccccc1NC(=O)c1ccccc1,?,-22%
COc1ccc(Cn2ccc3nc(C)c(C(=O)N4CCN(c5cccc(OC)c5)CC4)cc3c2=O)cc1,-17%,-17%
CCN(CC)S(=O)(=O)c1cccc(C(=O)NCC(c2ccccc2)N(C)C)c1 (configuration not stated),-1%,-10%
CCCCNC(=O)c1cnc2sc(N3CCCCC3)nn2c1=O,5%,-8%
CCCCC(=O)Nc1nn(CC)c2nc3c(C)cccc3cc12,-24%,-9%
COc1ccc(OC)c(NC(=O)c2cc3cccc(OC)c3oc2=O)c1,-7%,-2%
CCC1(NS(=O)(=O)c2ccc(N)cc2)C(=O)N(C)C(=O)N(C)C1=O,i,-10%
O=C(NCC(=O)N(Cc1ccccc1)C(C(=O)NCC1CCCO1)c1ccccc1)c1cccs1 (configuration not stated),i,-19%
CC(C#Cc1ccc2c(c1)COc1c3ccccc3nn1-2)OC(C)(C)C (configuration not stated),?,-14%
COc1ccccc1NC(=O)c1c(NCc2ccc(C)o2)sc2c1CCCCC2,-5%[7.34 µM],-9%[7.34 µM]
CCOC(=O)Cc1nnc2c(Nc3ccc(Cl)cc3)nc3nonc3n12,?,?
CCN(CC)C(=O)CSc1nc2ccccc2c(=O)n1Cc1ccco1,-9%,1%
Cn1c(SCc2ccccc2)nnc1-c1ccco1,-18%,3%
COC(=O)Cc1[nH]n(-c2ccccc2)c(=O)c1C=Nc1ccc(C)cc1,i,-12%
COc1cc(C(C)=O)ccc1OCc1nnc(-c2ccccc2Br)o1,-19%,-7%
COC(=O)c1cc2nc(-c3ccc(C)cc3)cc(C(F)(F)F)n2n1,-7%,-10%
O=C(NCc1ccncc1)c1c(F)c(F)c(F)c(F)c1F,-28%,?
O=C(O)c1cc(-c2ccc(Cl)c(Cl)c2)n(-c2ccccc2)n1,i,-10%
Cc1cc(C)cc(N(CC(=O)Nc2ccccc2-c2ccccc2)S(=O)(=O)c2ccccc2)c1,-1%,-11%
COc1ccc(-c2oc3ncn4nc(-c5ccccc5Br)nc4c3c2-c2ccc(OC)cc2)cc1,5%,6%
COc1ccc(NC(=O)C(c2ccc(C)cc2)N(C)C(=O)CC2NC(=O)NC2=O)cc1 (configuration not stated),-16%,-8%

# All compounds of this part, from the first entry:
SMILES,VACV mCherry inh,Vaccinia Venus
Cc1ccccc1-c1cc2nc(C)c(Cl)c(=O)n2[nH]1,4%,6%
N#CCc1c(C#N)c(N)nc(Nc2ccccc2)c1C#N,i[7.34 µM],-11%[7.34 µM]
O=C(OCC(=O)N1CCOCC1)c1cc(F)c(F)cc1Cl,-22%,15%
COC(=O)C(Cc1ccc(OC(=O)c2ccccc2Cl)cc1)N1Cc2ccccc2C1=O (configuration not stated),/,?
Nc1ccccc1NC(=O)c1ccccc1,?,-22%
COc1ccc(Cn2ccc3nc(C)c(C(=O)N4CCN(c5cccc(OC)c5)CC4)cc3c2=O)cc1,-17%,-17%
CCN(CC)S(=O)(=O)c1cccc(C(=O)NCC(c2ccccc2)N(C)C)c1 (configuration not stated),-1%,-10%
CCCCNC(=O)c1cnc2sc(N3CCCCC3)nn2c1=O,5%,-8%
CCCCC(=O)Nc1nn(CC)c2nc3c(C)cccc3cc12,-24%,-9%
COc1ccc(OC)c(NC(=O)c2cc3cccc(OC)c3oc2=O)c1,-7%,-2%
CCC1(NS(=O)(=O)c2ccc(N)cc2)C(=O)N(C)C(=O)N(C)C1=O,i,-10%
O=C(NCC(=O)N(Cc1ccccc1)C(C(=O)NCC1CCCO1)c1ccccc1)c1cccs1 (configuration not stated),i,-19%
CC(C#Cc1ccc2c(c1)COc1c3ccccc3nn1-2)OC(C)(C)C (configuration not stated),?,-14%
COc1ccccc1NC(=O)c1c(NCc2ccc(C)o2)sc2c1CCCCC2,-5%[7.34 µM],-9%[7.34 µM]
CCOC(=O)Cc1nnc2c(Nc3ccc(Cl)cc3)nc3nonc3n12,?,?
CCN(CC)C(=O)CSc1nc2ccccc2c(=O)n1Cc1ccco1,-9%,1%
Cn1c(SCc2ccccc2)nnc1-c1ccco1,-18%,3%
COC(=O)Cc1[nH]n(-c2ccccc2)c(=O)c1C=Nc1ccc(C)cc1,i,-12%
COc1cc(C(C)=O)ccc1OCc1nnc(-c2ccccc2Br)o1,-19%,-7%
COC(=O)c1cc2nc(-c3ccc(C)cc3)cc(C(F)(F)F)n2n1,-7%,-10%
O=C(NCc1ccncc1)c1c(F)c(F)c(F)c(F)c1F,-28%,?
O=C(O)c1cc(-c2ccc(Cl)c(Cl)c2)n(-c2ccccc2)n1,i,-10%
Cc1cc(C)cc(N(CC(=O)Nc2ccccc2-c2ccccc2)S(=O)(=O)c2ccccc2)c1,-1%,-11%
COc1ccc(-c2oc3ncn4nc(-c5ccccc5Br)nc4c3c2-c2ccc(OC)cc2)cc1,5%,6%
COc1ccc(NC(=O)C(c2ccc(C)cc2)N(C)C(=O)CC2NC(=O)NC2=O)cc1 (configuration not stated),-16%,-8%
O=C(Nc1cccc(Cl)c1Cl)c1snnc1-c1ccccc1,/,-7%
O=C(NCc1cccc(Cl)c1)c1oc(=O)c2ccccc2c1-c1ccccc1,-3%,-4%
CC(C)(CNC(=O)c1sc2cc(Cl)ccc2c1Cl)N1CCOCC1,?,-25%
Cc1ccc(S(=O)(=O)N2[C@H](c3ccc(Cl)cc3)CC(=O)[C@@H]3CN(S(=O)(=O)c4ccccc4C)[C@H](c4ccc(Cl)cc4)C[C@@H]32)cc1,9%,-13%
O=Cc1c(C(=O)O)n(Cc2ccc(Cl)cc2)c2ccccc12,i,47%[activator]
O=C(NN1CCOCC1)c1cc(-c2ccc(Cl)c(Cl)c2)nc2ccccc12,-14%,-12%
O=C(NCc1ccco1)C1CCN(S(=O)(=O)c2ccc(-n3cnnn3)cc2)CC1,/,-19%
Cc1cc(CC(=O)O)n(C)c1C(=O)c1ccc(Cl)cc1,-5%,-12%&-10%
O=C(Nc1cccc(O)c1)c1ccc(NC(=O)C2CCCO2)cc1 (configuration not stated),i,-13%
O=C(NNC(=O)c1ccc(-c2ccccc2)cc1)Nc1ccccc1,-13%,-8%
COc1cccc(C(=O)Nc2nc(-c3nnn(-c4ccccc4C(F)(F)F)c3C)ns2)c1,-22%,-24%
C[C@]12CC[C@H](O)CC1=CCC1C2CC[C@@]2(C)C1C[C@@H]1CC(=O)O[C@@H]12 (some centres not stated),i,-15%
Cc1nc2ccc(NC(=O)NCc3ccco3)cc2s1,i,-9%
Nc1ccccc1C(=O)Nc1ccc(Cl)cc1Cl,i,-3%
Cc1ccc(S(=O)(=O)NCCC(=O)NCC(c2cccs2)N2CCOCC2)cc1 (configuration not stated),-23%,-17%
COc1ccc(CN2C(=O)c3oc4ccccc4c(=O)c3C2c2ccc(O)c(OC)c2)cc1 (configuration not stated),-4%,-1%
O=C(NCC(c1cccnc1)N1CCOCC1)c1cccc(Cl)c1 (configuration not stated),-12%,-7%
COc1ccc(C(=O)C[n+]2cccc(C)c2)cc1,-14%,-12%
COc1ccccc1OCCn1c(NC(=O)c2ccc(Cl)cc2)nc2ccccc21,-27%,-28%
Cc1cc(/C=C2\NC(=O)N(Cc3ccc(Cl)cc3)C2=O)c(C)n1C,-10%,-6%
COc1ccc(CNC(=O)C[C@@H]2C[C@H]3c4cc(NC(=O)C5CCC5)ccc4O[C@H]3[C@@H](CO)O2)cc1,-7%,-15%
O=C(NN=C1CCCC1)c1[nH]c2ccc(Br)cc2c1-c1ccccc1,11µM*,?
Cc1cc(C)c(NC(=O)Cn2c(=O)n(CCC(=O)NCc3ccccc3Cl)c(=O)c3sccc32)c(C)c1,5%,17%
CN(C)CCNC(=O)c1cc2c(=O)n(C)c3ccccc3c2n1C,-7%,-7%
COc1cc2c(c(OC)c1)C(c1cc(OC)c(OC)c(OC)c1)CC(=O)N2 (configuration not stated),32%[activator],27%
COc1ccccc1NC(=S)NC(=O)CC(C)C,/,-4%
Cc1cccc(-n2ncc3c(NCCOCCO)ncnc32)c1,-7%,-1%
CCOC(=O)c1ccc(Nc2c(-c3ccc(N(C)C)cc3)nc3nc[nH]n23)cc1,-27%,-13%
Cc1cccc(OCC(=O)Nc2ccccc2C(=O)OCc2cc(=O)n3ccsc3n2)c1,i,-17%
Cc1nnc(NCc2ccccc2)c2c1nnn2Cc1ccccc1Cl,?,?
O=C(CSc1ccc(-c2ccco2)nn1)c1ccc(F)cc1,i,-15%
O=C(Cn1cnc2c(nnn2Cc2ccccc2)c1=O)c1ccccc1,1%,-3%
O=C(c1ccco1)N1CCN(c2nc(C3CC3)nc3sc4c(c23)CCCC4)CC1,-29%,-17%
COc1ccccc1/C=C1/SC(=O)N(CCC(=O)Nc2ccc(S(=O)(=O)Nc3nccs3)cc2)C1=O,-8%,-3%
COc1ccc(CN(C)c2ncnc(N)n2)cc1,/,-4%

# Continuation.
SMILES,VACV mCherry inh,Vaccinia Venus
COc1ccc(Nc2nccc3c2ncn3C)cc1,i[7.34 µM],-6%[7.34 µM]
CCc1cccc(C)c1NC(=O)COC(=O)c1ccc2c(c1)S(=O)(=O)c1ccccc1C2=O,-6%,-6%
CC(C)NC(=O)c1onc(CSc2cccc(F)c2)c1C(=O)O,i,-14%
COc1ccccc1CNC(=O)Cc1c(C)c2c(cc(C)c3c(C)c(C)oc32)oc1=O,-5%,-8%
O=C(NCc1ccc(F)cc1)c1ccc[nH]1,-3%,2%
CC(=O)c1cccc(Nc2nc(-c3cccnc3)cs2)c1,?,-25%
CC(C)(C)NC(=O)c1cc(-c2ccccc2)n[nH]1,i,-6%
CCCCC1=CC2=CC(=O)C(C)(OC(=O)CC)C(=O)C2=CN1CCN1CCOCC1 (configuration not stated),-8%,-1%
CCOC(=O)c1c(NC(=O)COc2ncnc3ccccc23)sc(C)c1CC,-23%,-27%
Cc1nc([N+](=O)[O-])cn1CC(=O)c1ccc2c(c1)OCCO2,0%,-14%
COC(=O)C(C)NC(=O)C1CCCN1S(=O)(=O)c1cc(C)c(Cl)cc1C (configuration not stated),/,?
Cc1ccc2oc(-c3cccc(NC(=S)NC(=O)/C=C/c4ccco4)c3)nc2c1,/,-23%
CCOC(=O)CNS(=O)(=O)c1cc(-c2nn(C)c(=O)c3ccccc23)ccc1C,-15%,-11%
CCC(Sc1nc2ccncc2[nH]1)C(=O)Nc1cc(Cl)ccc1C (configuration not stated),-22%&-6%,-10%&2%
COC(=O)[C@@]1(Cc2ccc(F)cc2)[C@H]2c3cc(C(=O)N(C)C)[nH]c3C[C@H]2CN1C(=O)c1ccccc1,9%,-21%
COc1ccc(N2CCN(Cc3cc(=O)oc4ccc5ccccc5c34)CC2)cc1,-27%,-16%
Cc1ccc(SCC(=O)Nc2ccc3oc(-c4ccc(F)cc4)nc3c2)cc1,-21%,-15%
O=C(/C=C/c1ccc([N+](=O)[O-])cc1)NNC(=O)C1CC1,-4%,-9%
CCCCCCC(=O)N=Nc1c(O)[nH]c2ccc([N+](=O)[O-])cc12,i,-10%
COc1ccc(CC(=O)NCCN2CCCC2)cc1,i[1.46 µM],-7%
COc1ccc(C(=O)c2ccc(OC)c3cccc(O)c23)cc1OC,/,-30%
CCOC(=O)c1ccc(OC(=O)c2cn(-c3cccc(OC)c3)c(=O)c3ccccc23)cc1,-5%,-10%
O=C(NCCc1cccs1)Nc1ccc2nc([C@@H]3O[C@H](CO)[C@@H](O)[C@H]3O)[nH]c2c1,11%,10%
COc1ccccc1CC(=O)Nc1nc(-c2ccc(F)c(F)c2)cs1,?,-18%
CCOC(=O)C(=O)N(C)c1c(CC)nc2c(OCc3cccc(OC)c3)cccn12,i,-11%
CC(C)(C)c1nc(Sc2ncccc2[N+](=O)[O-])n[nH]1,-13%,13%
COc1cc(NC(=O)c2cccc(Cl)c2)ccc1NC(=O)c1cccs1,i,-5%
CNc1nc(C)c(C(=O)c2ccc(Cl)cc2)s1,?,-23%
O=C(O)CCCCCNc1ccc2nsnc2c1[N+](=O)[O-],-6%,-1%
Cc1ccccc1Nc1nnc(-c2ccc(C)c(S(=O)(=O)N3CCCCC3)c2)c2ccccc12,?,-12%
COc1ccc(/C(C)=N/NC(=O)C2C3CCCCC32)c(OC)c1 (configuration not stated),-11%,-1%
CC1(Cc2cc(Cl)ccc2C(F)(F)F)C(=O)Nc2cc(F)ccc21 (configuration not stated),-11%,-8%
